# PINK1 expr mod: PINK1 expression modulation; PINK1 immunofluorescence, high-content cytometry, 24 h; 0.2% of 410,000 active; Potency, µM (series often up to 76.6 µM), for the others: at the highest dose activation (PINK1 increase), usual class: activators; active = well fitted activation curve with a large enough effect; inconclusive = small, poorly fitted or top-dose-only effect; inactive = flat fitted curve, though single readings scatter; cell line not stated here;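 note: potency is the fitted concentration of half-maximal effect; % of control where 0% means no effect; nearly all actives have a fitted effect of over 65% in size; a mitochondrial uncoupler was the plate control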
#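 Decision-based qHTS: stable cells, 24 h exposure to five compound concentrations, CCCP as control. Fixed cells stained for PINK1 plus nuclear, mitochondrial and cell markers, cytometer read.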
# ClpP mod: qHTS Assay for Activators of ClpP | ATP-dependent Clp protease proteolytic subunit (Bacillus subtilis (strain 168)), P80244 | purified B. subtilis ClpP, FRET peptide cleavage, 20 min | Potency, µM (titrated, usually from 57.5 µM), without a hit: at the top dose activity change, negative = active | 1.9% of 340,000 active | AID 651965, 2013; active = well fitted falling curve with a large enough effect; inconclusive = small, poorly fitted or top-dose-only effect; inactive = no such curve, though single readings can be large or run the other way; note: potency is the fitted concentration of half-maximal effect; the source files actives as falling curves though it sought activators and does not explain the sign; nearly all actives have a fitted effect of over 65% in size; many hits overshoot -100%
# Target sequence (P80244 whole entry, looked up): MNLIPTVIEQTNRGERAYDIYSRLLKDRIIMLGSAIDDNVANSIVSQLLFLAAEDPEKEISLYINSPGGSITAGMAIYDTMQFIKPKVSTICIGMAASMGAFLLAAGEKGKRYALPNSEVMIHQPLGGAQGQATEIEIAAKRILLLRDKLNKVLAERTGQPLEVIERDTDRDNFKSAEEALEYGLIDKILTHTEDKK
#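 Buffer: 100 mM Tris/HCl pH8, 100 mM KCl, 0.05% low protease BSA, 2.5% glycerol, 0.01% Tween-20. ClpP 10 microg/mL final; 20 min RT; delta FRET normalized to ADEP and DMSO controls.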
# Menin-MLL FL inh: menin-MLL binding inhibition, fluorescein peptide | FP activity change, % at 61.4 µM | 290,000 tested, under 10 active | Fluorescence polarization, fluorescein-MLL peptide displacement from menin | AID 1766; inconclusive = falling polarisation curve, or a change in total fluorescence; inactive = total fluorescence flat and polarisation flat or rising; no compound was filed as active; the % refers to the polarisation; negative = inhibition;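 note: % of control where 0% means no effect; inhibitors lower the polarisation; unlabelled MLL peptide was the positive control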
# D2 ag: activates the human D2 dopamine receptor; P14416; DiscoveRx PathHunter D2 beta-arrestin, luminescence, 90 min; 100% = 57 uM dopamine signal; activation, % (no concentration beside the values); 0.084% of 360,000 active; AID 624465; in the data active = activation above about 40%; inconclusive = about 15% to 40%; inactive = below about 15%; note: compound concentration not given in the record; the text of the record calls up to 30% inactive
# Target sequence (P14416 whole entry, looked up): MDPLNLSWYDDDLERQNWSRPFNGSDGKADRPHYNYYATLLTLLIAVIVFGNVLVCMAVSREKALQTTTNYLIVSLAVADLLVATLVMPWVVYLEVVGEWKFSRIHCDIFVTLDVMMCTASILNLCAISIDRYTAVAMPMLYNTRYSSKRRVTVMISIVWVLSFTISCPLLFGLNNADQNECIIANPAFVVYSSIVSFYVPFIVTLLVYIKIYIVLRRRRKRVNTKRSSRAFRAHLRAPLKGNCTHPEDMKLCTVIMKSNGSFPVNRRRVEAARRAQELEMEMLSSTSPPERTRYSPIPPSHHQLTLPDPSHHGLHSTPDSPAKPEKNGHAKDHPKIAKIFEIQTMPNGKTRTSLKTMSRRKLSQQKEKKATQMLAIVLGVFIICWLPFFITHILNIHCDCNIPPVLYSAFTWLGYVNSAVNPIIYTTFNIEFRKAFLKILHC
#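 Agonist mode: compounds alone added to overnight-plated D2 PathHunter cells for 90 min at 37 C, with 57 uM final dopamine (EC100) defining full response. Beta-arrestin recruitment detected by chemiluminescent reagent, read after 1 h at ambient temperature.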
# Sfp inh: inhibitors of Bacillus subtilis Sfp phosphopantetheinyl transferase | Potency, µM, without a hit: max response, negative = inhibition, hits mostly inhibitors | 3.5% of 310,000 active | Biochemical Sfp PPTase activity, qHTS | Q9F4F7; active = well fitted inhibition curve with a large enough effect; inconclusive = small, poorly fitted or top-dose-only effect, or another doubt; inactive = no such curve, though single readings can be large or run the other way;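 note: the enzyme is Sfp with the accession as filed and its product quenches rhodamine fluorescence; potency is the fitted concentration of half-maximal effect; 0% = enzyme reaction without inhibitor and -100% = no enzyme wells; top concentration of the series not given in the record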
#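 Fluorescence-quenching assay: 15 nM Sfp-PPTase preincubated 15 min at room temperature with compound, then 5 uM rhodamine-CoA and 12.5 uM BHQ-2-labelled YbbR peptide added. Fluorescence (ex 525/em 598 nm) read at start and after 30 min; difference gives rate.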
# gsp ag: agonists of gsp mutant (McCune-Albright syndrome) | gsp mutant cells, cAMP HTRF, 30 min; control for the full effect not named in the record | AID 624287 | 0.13% of 340,000 active | Potency, µM (series often up to 76.9 µM), for inactives: at the top dose activation (cAMP increase), most hits filed as activators; active = well fitted activation curve with a large enough effect; inconclusive = small, poorly fitted or top-dose-only effect, or another doubt; inactive = no such curve, though single readings can be large or run the other way; cell line not stated here;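 note: phosphodiesterase inhibitor Ro 20-1724 added with compounds to block cAMP breakdown; potency is the fitted concentration of half-maximal effect; nearly all actives have a fitted effect of over 60% in size; about a fifth of the inactives were tested at one dose only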
#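 Cells in DMEM/10% FBS with G418 were pretreated with compounds in DMSO plus […] (300 uM stock) for 30 min at 37C. cAMP was measured by HTRF (cAMP-d2 plus anti-cAMP antibody-K) after 30 min at room temperature.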
# gsp antag: antagonizes gsp, the McCune-Albright syndrome mutation. gsp-mutant cells, cAMP HTRF, 30 min; control for the full effect not named in the record. Potency, µM (titrated, usually from 76.9 µM), for inactives: at the top dose activity change, negative = inhibition, most hits filed as inhibitors. 0.4% of 340,000 active. AID 624288; active = falling curve of any shape with a large fitted effect; inconclusive = falling curve, mostly with a smaller effect; inactive = flat or rising curve; cell line not stated here;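 note: intracellular cAMP measured with PDE inhibitor Ro 20-1724 present during compound exposure; potency is the fitted concentration of half-maximal effect; % is set by controls: 0 for no effect and ±100 for the full control effect; nearly all actives have a fitted effect of over 65% in size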
#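 Cells, 2000/well, grown 16–24 h in DMEM 10% FBS with 0.5 mg/ml G418, then compounds plus […] (300 uM addition stock), 30 min at 37C. cAMP read by HTRF (cAMP-d2 and anti-cAMP antibody-K in lysis buffer) after 30 min RT.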
# Numbers without * were called inactive; ? = inconclusive; nt = not tested or not shown; [ ] = another dose, or the depositor's remark.
SMILES,PINK1 expr mod,ClpP mod,Menin-MLL FL inh,D2 ag,Sfp inh,gsp ag,gsp antag
CC(C(=O)O)N1C(=O)c2cccc3cccc1c23 (stereo not drawn),2.7%,-2.9%,2.0,-2.1,2%,?,-7%
O=C(CCNS(=O)(=O)c1ccc(Br)cc1)NCCc1ccccc1,0.2%,-3.3%,-0.7,0.7,11%,3%,4%
O=C(Nc1cc(Cl)ccc1Oc1ccccc1)c1cnccn1,6.3%,2.1%,0.6,-3.7,1%,15%,11%
CCOC(=O)CNC(=O)Cn1cnc2sc(C)c(S(=O)(=O)N3CCOCC3)c2c1=O,1.6%,-0.2%,-0.7,-6.6,17%,-5%[15.4 µM],16%
Cc1c(Cc2ccccc2)c(=O)oc2c(C)c(OCC(=O)N[C@@H](Cc3ccccc3)C(=O)O)ccc12,0.2%,4.7%,-0.8,5.2,-5%,nt,-4%
Cc1csc(NC(=O)c2ccc(=O)[nH]c2)n1,0.8%,-10%,6.2,-4.8,14%,-6%,-6%
Cc1ccc2c(CNCc3ccccc3)cc(=O)oc2c1,3.6%,-2.6%,9.0,-1.1,-17%,7%[15.4 µM],3%
COC(=O)C1=CN(CCCN2CCCC2=O)C=C(C(=O)OC)C1c1ccccc1C(F)(F)F,2.3%,8.2%,2.0,0.2,6%,22%,?
O=C(NC(Cc1ccc2c(c1)OCO2)C(=O)N1CCCC1C(=O)O)c1ccccc1 (stereo not drawn),11%[38.3 µM],-2.2%,-3.4,0.2,14%,0%,8%
COc1ccc(C(=O)Nc2ccc(N3CCOCC3)cc2)cc1OC,0.5%[38.3 µM],-1.9%,0.4,-0.3,7%,-11%,-2%
CC1Sc2ccc(C(=O)N(CCc3ccccc3)Cc3ccccc3)cc2NC1=O (stereo not drawn),?,-0.7%,nt,-2.1,nt,-64%[inhibitor],nt
Cc1nc2nc(C)c(CCC(=O)O)c(C)n2n1,0.2%[38.3 µM],-7.2%,-4.8,1.8,1%,-27%,2%
O=C(NC(=S)NNC(=O)c1ccccc1O)c1ccc([N+](=O)[O-])cc1,6.8%,-2.2%,3.8,6.7,11%,?,-3%
O=C(CSc1cn[nH]n1)Nc1ccccc1F,0.4%,1.7%,nt,-0.2,nt,-1%[15.4 µM],9%
O=C(CCC1CCCN(Cc2ccc(O)c(Cl)c2)C1)NCc1ccccc1F (stereo not drawn),10%,2.8%,1.3,-3.8,4%,-5%[15.4 µM],8%
COCCCNC(=S)N(CCCO)Cc1cc2cc3c(cc2[nH]c1=O)OCO3,0.3%,4.3%,-1.5,-2.6,20%,?,8%
CC(=O)Nc1cccc(N/C=C(\C=O)c2nc3ccccc3o2)c1,7.0%,?,4.2,1.1,-2%,17%,-11%
CC(C)Cc1nnc(NC(=O)CCC(=O)Nc2ccccc2)s1,0.1%,-1.5%,nt,2.3,0%,-42%[inhibitor],1%
O=C(CSc1nnc(CCc2ccccc2)n1-c1ccc(Cl)cc1)NCc1ccccc1,-1.2%,?,4.1,-8.1,12%,-4%[15.4 µM],?
CC1(C)CC(=O)C=C(NCCc2c[nH]c3ccccc23)C1,6.4%,nt,2.0,-2.2,10%,17%[15.4 µM],9%
O=C(C1CCCCC1)N1CCC(CO)(Cc2ccccc2Cl)CC1,0.9%,2.1%,-4.4,-3.0,12%,8%,-3%
O=C(COC(=O)/C=C/C(=O)N1CCN(c2ccccc2)CC1)NCc1ccc(F)cc1,2.4%,nt,5.5,-3.6,18%,0%[15.4 µM],7%
CCOC(=O)Cn1nc(NC(=O)c2ccc3c(c2)OCO3)cc1C,-0.4%,1.1%,nt,-5.6,7%,?,2%
O=C(CSc1nc2ccc([N+](=O)[O-])cc2[nH]1)c1ccc2ccccc2c1,5.3%[38.3 µM],-1.3%,0.3,-2.8,12%,16%,?
CCC(C)Sc1nnc(CNC(=O)C23CC4CC(CC(C4)C2)C3)n1C1CCCCC1 (stereo not drawn),1.1%,-1.2%,0.0,-3.8,17%,-1%,-23%
c1ccc(Cc2noc(CN3CCCN(C4Cc5ccccc5C4)CC3)n2)cc1,-1.4%,nt,-0.1,1.0,8%,-20%,8%
Cc1ccc2nc(-c3ccccn3)cc(C(=O)N3CCN(c4ncccn4)CC3)c2c1,7.0%,-1.9%,5.6,-1.3,12%,-10%,-8%
O=C(COC(=O)c1cnccn1)Nc1cc(S(=O)(=O)N2CCOCC2)ccc1Cl,-1.0%,-2.1%,nt,-2.7,nt,?,9%
CCOC(=O)c1cc2oc(C)cc2n1CC(=O)OC1CCCCC1,2.5%[38.3 µM],-22%,1.2,-1.1,79µM*,?,?
CCOc1ccc(NC(=O)CN(C)C(=O)C2CCN(C(=O)c3ccc(Cl)cc3)CC2)cc1OCC,-1.6%,-1.0%,nt,-2.7,nt,29%,7%
CC(C(=O)NC(=O)NC1CCCCC1)N1CCN(c2ccccn2)CC1 (stereo not drawn),-1.0%,-2.6%,-1.7,-2.5,11%,24%,1%
COc1ccc(OCCOC(=O)CNC(=O)c2cccc(C)c2)cc1,-0.3%,-3.1%,nt,2.9,nt,?,5%
Cc1ccnc(NC(=O)c2ccc(NC(=O)CC3SC(N4CCCC4)=NC3=O)cc2)c1 (stereo not drawn),-0.2%,-0.8%,nt,1.8,nt,10%[15.4 µM],3%
CCSc1nnc(NC(=O)CSc2nc(C)cc(C)n2)s1,1.7%,0.7%,0.8,4.4,16%,9%,-2%
O=C(CCC1CCCC1)Nc1ccccc1-c1ccccc1,18%,?,5.2,-0.3,-18%,0%,-20%
O=C(c1cc(-c2ccncc2)nc2ccccc12)N1CCOCC1,6.6%,-3.1%,nt,-3.8,nt,-16%,-2%
Cc1ccc(/C=N/NC(=O)Cc2cccs2)o1,1.1%,-2.1%,5.4,-0.6,?,10%,29%
Cc1cc(=O)oc2cc(OC(C)C(=O)N3CCCc4ccccc43)ccc12 (stereo not drawn),0.9%,?,0.8,2.8,-4%,?,-1%
CCOC(=O)c1c(C)[nH]c(O)c1C=Nc1ccccc1,-1.1%,2.0%,?,-3.3,?,-52%[inhibitor],-14%
Cc1cc(C(=O)c2ccccc2)nc2ccccc12,-0.6%,0.1%,0.2,-5.1,-3%,-31%[inhibitor],-4%
COc1ccc2c(COC(=O)CCS(=O)(=O)c3ccc(C)cc3)cc(=O)oc2c1,-2.8%,23%,nt,-5.4,nt,-10%,-21%
Cc1ccnc(Nc2nc(-c3ccccc3)cs2)c1,2.8%,-0.3%,3.5,3.8,7%,-23%,-18%
Cc1cccc(C)c1OCCCCN1CCCCC1,-0.5%,2.2%,-5.2,1.8,-11%,-27%,4%
OCC[C@H]1C[C@@H](O)[C@H](O)[C@@]2(CCCO2)O1,3.4%,-6.3%,nt,-1.1,nt,nt,-1%
CC(=O)c1cccc(NC(=O)COC(=O)CCc2ccc(S(=O)(=O)N3CCOCC3)cc2)c1,0.8%,nt,0.0,4.6,19%,0%[15.4 µM],nt
CC(=O)Nc1cc(NC(C)=O)cc(C(=O)OCC(=O)c2ccc3c(c2)NC(=O)CO3)c1,11%,nt,nt,-2.2,nt,28%[15.4 µM],7%
Cc1ccc(C(C)C)cc1OCC(=O)NC1CCCCCCC1,?,-4.4%,nt,-8.5,nt,-8%[15.4 µM],-13%
O=C(C1CCCN(Cc2ccccc2F)C1)N1CCCC1 (stereo not drawn),-0.5%,-1.3%,0.3,-0.2,-20%,-34%[inhibitor],1%
Cc1ccnc(N2C(=O)c3ccccc3C2Nc2ccc3c(c2)OCCO3)c1 (stereo not drawn),0.0%,1.0%,2.7,2.4,3%,2%,-8%
CCOc1cccc(C(=O)Nc2cccc(NC(=O)c3ccco3)c2)c1,0.3%,-5.6%,-1.8,-6.5,13%,2%[15.4 µM],?
COc1ccc(Cc2nc3ccccc3n2CC(=O)N/N=C/c2ccc(O)cc2)cc1OC,-0.4%,-3.3%,0.0,3.9,11%,-3%,-11%
CCc1ccccc1NC(=O)Nc1cccs1,0.7%,-0.2%,1.3,-5.0,50µM*,14%,?
COc1ccc(CCNC(=O)COc2ccc(-c3ccc(C)cc3)cc2)cc1OC,4.2%[38.3 µM],0.9%,-7.9,0.3,10%,-6%,7%
Cc1nnc(SCC(=O)Nc2nccs2)n1C(C)C,1.1%,1.5%,nt,-1.6,2%,?,5%
O=C(NCc1ccc(C(F)(F)F)cc1)c1cccc2c(-c3ccc(F)c(F)c3)coc12,2.0%,-11%,nt,-4.5,nt,nt,nt
C[C@H]1CN([C@@H](C)CO)C(=O)c2cccc(NC(=O)Nc3ccc(C(F)(F)F)cc3)c2O[C@H]1CN(C)C,6.6%,-20%,nt,-0.8,nt,-3%,-6%
NC(c1csc(Nc2cnccn2)n1)C1CCCCC1 (stereo not drawn),-0.1%,-0.3%,nt,-4.6,nt,nt,nt
CC(C)Cn1cnc2c(Sc3c([N+](=O)[O-])ncn3C)nc(N)nc21,0.7%,-0.4%,nt,-4.8,nt,-17%,6%
Cc1cc(SCC#N)n2nc(C)c(-c3ccccc3)c2n1,-0.2%,-1.4%,6.9,-0.5,-28%,3%,19%
O=C(CNC(=O)c1ccc(Br)o1)NCC(=O)OCc1ccccc1,-0.8%,-2.9%,nt,-0.2,nt,5%,5%
CCSc1nnc(SCC(=O)Nc2cc(C)on2)s1,-2.0%,-1.6%,nt,4.1,nt,-137%[inhibitor],9%
COc1ccc(Cl)cc1-c1cc(C(=O)Nc2cc(OC)c(OC)c(OC)c2)[nH]n1,-1.2%,-0.6%,nt,6.4,nt,nt,nt

# Printed as active in Sfp inh (from the list above):
smiles | PINK1 expr mod | Menin-MLL FL inh | D2 ag | Sfp inh | gsp ag | gsp antag
CCOC(=O)c1cc2oc(C)cc2n1CC(=O)OC1CCCCC1 | 2.5%[38.3 µM] | 1.2 | -1.1 | 79µM* | ? | ?
CCc1ccccc1NC(=O)Nc1cccs1 | 0.7% | 1.3 | -5.0 | 50µM* | 14% | ?

# Screening results as filed in PubChem BioAssay.

# This is a random part of the collection (roughly 5.1% active in at least one column).
